# Source: PubChem (National Center for Advancing Translational Sciences (NCATS))
# D2 ag = Beta-Arrestin HTS for Positive Allosteric Modulators of the Human D2 Dopamine Receptor: Agonists | 360,000 compounds, 0.084% hits | activation, % (concentration not given with the values) | DiscoveRx PathHunter D2 beta-arrestin, luminescence, 90 min; 100% = 57 uM dopamine signal; in the data active = activation above about 40%; inconclusive = about 15% to 40%; inactive = below about 15%; further: the text of the record calls up to 30% inactive
#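 DiscoveRx PathHunter D2 beta-arrestin cells (2,100/well) attached overnight, then compound-stimulated 90 min at 37 C in HBSS/10 mM HEPES/0.1% Tween-20 buffer; beta-galactosidase complementation read by luminescence after 1 h at ambient temperature. Dopamine 57 uM final (EC100) as control.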
# TRPML1 blocker = qHTS for Inhibitors of the Human Mucolipin Transient Receptor Potential 1 (TRPML1). 390,000 compounds, 0.02% hits. Mucolipin-1 (Homo sapiens), Q9GZU1. AID 624415, 2012. activity change, negative = inhibition, % (concentration not given with the values). TRPML1-inducible cells, Ca2+ dye fluorescence, FDSS; stronger effect = lower value; inhibition of EC80 agonist-evoked calcium signal; in the data active means activity change below about -50%; inconclusive means about -30% to -50%; inactive means above about -30%;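 further: stimulus is agonist 54-4 at its EC80 concentration; on the % scale 0 is the no-effect control and ±100 the full control effect; the text of the record puts the active cut at -80%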
#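 TRPML1-DL cells, Tet-induced overnight (~16 h, 37 °C) at 1,500 cells/well, were loaded with Ca8 no-wash dye plus quencher for 45-90 min at room temperature. Compounds were pinned during FDSS kinetic reading; agonist 54-4 at EC80 (4 uM final) then added.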
# TRPML1 ag = qHTS for Agonists of the Human Mucolipin Transient Receptor Potential 1 (TRPML1) | Mucolipin-1 (Homo sapiens), Q9GZU1 | 410,000 compounds, 0.12% hits | TRPML1-expressing cells, Ca2+ dye fluorescence, FDSS; host cell line not named in the record; reference of the full effect not given here | activation, % (no concentration beside the values); in the data active = activation above about 50%; inconclusive = about 30% to 50%; inactive = below about 30%; further: 0% is about no effect; the text of the record puts the active cut at 80%
#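 In this qHTS format, compounds were pin-transferred onto Ca8-dye-loaded TRPML1-DL cells induced with Tet overnight, and intracellular Ca2+ fluorescence was recorded kinetically for 110 s after a 10 s baseline. A subsequent 4uM final 54-4 (EC80) addition followed by a second 110 s read served as the antagonist phase.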
# Six1-Eya2 inh = qHTS Assay for Inhibitors of the Six1/Eya2 Interaction | AlphaScreen GST-Six1/His-Eya2 binding, biochemical; stronger effect = lower value; control for the full effect not named in the record | AID 651725, 2012 | activity change, % (no concentration beside the values) | 360,000 compounds, 0.56% hits | Homeobox protein SIX1 (Homo sapiens) + Protein phosphatase EYA2 (Homo sapiens), …; in the data active = activity change below about -65%; inconclusive = about -30% to -65%; inactive = above about -30%; further: on the % scale 0 is the no-effect control and ±100 the full control effect
# Target sequence (O00167 whole entry, looked up): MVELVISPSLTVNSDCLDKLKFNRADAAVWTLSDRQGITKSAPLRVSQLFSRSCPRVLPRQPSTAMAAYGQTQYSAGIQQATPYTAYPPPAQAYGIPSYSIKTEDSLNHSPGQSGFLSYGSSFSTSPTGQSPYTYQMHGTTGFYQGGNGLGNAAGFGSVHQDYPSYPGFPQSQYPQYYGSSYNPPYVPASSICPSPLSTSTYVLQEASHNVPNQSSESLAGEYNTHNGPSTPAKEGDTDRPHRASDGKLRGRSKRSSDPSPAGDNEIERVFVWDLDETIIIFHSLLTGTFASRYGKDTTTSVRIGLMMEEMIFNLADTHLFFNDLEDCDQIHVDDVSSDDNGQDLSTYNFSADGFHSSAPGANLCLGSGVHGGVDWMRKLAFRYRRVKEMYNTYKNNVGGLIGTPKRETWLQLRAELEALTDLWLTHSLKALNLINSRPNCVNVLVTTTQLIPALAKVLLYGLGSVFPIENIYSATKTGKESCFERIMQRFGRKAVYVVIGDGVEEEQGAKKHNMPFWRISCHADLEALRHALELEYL
# Target sequence (Q15475 whole entry, looked up): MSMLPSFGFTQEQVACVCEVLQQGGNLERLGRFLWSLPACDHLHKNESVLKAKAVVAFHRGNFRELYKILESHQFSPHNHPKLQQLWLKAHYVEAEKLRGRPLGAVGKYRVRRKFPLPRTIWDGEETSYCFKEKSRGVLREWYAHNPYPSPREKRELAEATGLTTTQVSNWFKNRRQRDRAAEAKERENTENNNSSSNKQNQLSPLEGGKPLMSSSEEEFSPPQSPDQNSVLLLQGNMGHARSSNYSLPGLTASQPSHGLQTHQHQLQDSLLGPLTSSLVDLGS
#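 Homogeneous AlphaScreen proximity assay pairing GST-Six1 with His-tagged Eya2 (added as 5X mix: 250 nM and 500 nM) in 50 mM Tris pH 8.0, 300 mM NaCl, 1 mM TCEP. Glutathione donor and nickel acceptor beads; 1 h, 37 °C, dark.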
# D2 PAM = Beta-Arrestin HTS for Positive Allosteric Modulators of the Human D2 Dopamine Receptor: Potentiators; potentiation, % (test concentration not listed); DiscoveRx D2 beta-arrestin cells, luminescence, 90 min; 100% = 57 uM dopamine signal; 360,000 compounds, 0.23% hits; D(2) dopamine receptor (Homo sapiens), P14416; active = potentiation of 50% or more; inconclusive = 30% to 50%; inactive = 30% or less;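 further: compound concentration not given in the record; tested on top of an EC20 dose of dopamine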
#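 PathHunter D2 cells, attached overnight at 37 deg C, received compound in DMSO plus dopamine at EC20 (50 nM final) for 90 min at 37 deg C. Beta-arrestin recruitment was read as luminescence after 1 h with detection reagent at ambient temperature.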
# PINK1 expr mod = A Quantitative High throughput Screen to Identify Chemical Modulators of PINK1 Expression; PINK1 immunofluorescence, high-content cytometry, 24 h; 410,000 compounds, 0.2% hits; Potency, µM (highest dose often 76.6 µM), inactives show at the top dose activation (PINK1 increase), hits mostly activators; active = well fitted activation curve with a large enough effect; inconclusive = small, poorly fitted or top-dose-only effect; inactive = flat fitted curve, though single readings scatter; cell line not stated here;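 further: potency means the concentration at half of the fitted maximal effect; % of control where 0% means no effect; nearly all actives have a fitted effect of over 65% in size; a mitochondrial uncoupler was the plate control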
#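 Cells are seeded, rested 12 hours, then given compound at five concentrations or DMSO for 24 hours. After fixation, blocking and antibody staining, PINK1 amount and mitochondrial localization are scored; CCCP serves as control.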
# Active calls of the source: *; ? = inconclusive; . = not tested or not shown; & = joins results of further samples; [ ] = remark or other dose.
SMILES,D2 ag,TRPML1 blocker,TRPML1 ag,Six1-Eya2 inh,D2 PAM,PINK1 expr mod
Cc1ccc(C2=N/C(=C\c3ccc(OS(=O)(=O)c4ccc(C)cc4)cc3)C(=O)O2)cc1,-0.6,43,0.9,-3,1,23%
CCc1nnc(NC(=O)c2cccc(S(=O)(=O)N3CCN(c4ccccc4)CC3)c2)s1,-4.5,-1,0.6,-1,0,-0.8%
O=C(COC(=O)c1ccc(S(=O)(=O)N2CCCCC2)cc1)NC1CCCCC1,0.7,8,-0.4,1,-4,-0.1%
Cc1nc(-c2ccc(C(=O)N3CCOCC3)cc2)cs1,-3.2,22,-0.6,2,-2,-1.0%
Cc1cc(C)c2nc(C)cc(N/N=C/c3ccc(O)cc3)c2c1,-3.4,-14,0.3,?,-13,-1.6%
COC(=O)c1ccc(COC(=O)c2nn(C)c(=O)c3ccccc23)cc1,2.6,-16,1.1,2,0,1.3%
Cc1cc(OCC(O)CN2CCN(C)CC2)ccc1C(C)C (configuration not stated),-3.4&-5.0,19&4,-0.1&-1.1,5&-3,-11&-13,0.6%&-1.2%
CN(C)/C=C1\C(=O)Oc2ccccc2C1=O,-6.2,-18,-0.7,2,-21,0.9%
CC(C)CCN1CCN(Cc2ccon2)CC1CCO (configuration not stated),1.1,-12,-0.7,27,-2,0.3%
CCc1ccc(C(=O)c2cn(CC(=O)Nc3cccc(C)c3C)c3nc(C)ccc3c2=O)cc1,.,13,0.9,.,.,0.2%
CC(=O)Nc1ccc(NC(=O)/C=C/c2ccc3c(c2)OCO3)cc1,4.2,17,0.3,-4,-9,0.4%
O=C(c1ccc(COc2ccccc2Cl)o1)N1N=C(C(F)F)CC1(O)C(F)F (configuration not stated),-2.5,5,0.8,-4,-3,7.7%
O=C(NCC1(c2ccccc2)CCCC1)c1ccco1,-0.9,22,1.1,11,-3,0.4%
COC(=O)c1ccccc1NC(=O)c1cn2c3c(ccc(Cl)c3c1=O)OC(C)C2 (configuration not stated),.,-3,-0.2,.,.,2.6%
CCCCN(C(=O)NC(=O)Nc1nc2ccc(OC)cc2s1)S(C)(=O)=O,1.3,11,0.1,?,0,-0.4%[38.3 µM]
O=C(Nc1cccc(C(=O)N2CCN(c3ccc(F)cc3)CC2)c1)c1ccccc1,-3.3,-19,0.1,5,-12,0.2%
CC(C(=O)N1CCOCC1)N1C(=O)C2C3CC(C(Br)C3Br)C2C1=O (configuration not stated),-1.2,17,0.2,6,-4,1.1%
COc1ccc(NC(=O)Cn2c(=O)n(Cc3ccccc3OC)c(=O)c3cccnc32)cc1Cl,.,-23,1.6,.,.,2.1%
COc1cccc(NC(=O)CSc2nnc(-c3ccoc3C)n2C)c1,-1.7,-8,-0.7,-3,-4,1.2%
C[C@H](NC(=O)OC(C)(C)C)c1nnc(SCc2c(F)cccc2Cl)o1,.,13,0.9,.,.,0.4%
CSc1c(-c2ccccc2)nc2ccccc2c1C(=O)O,0.5,-1,0.0,1,12,-1.1%
Cn1nc([N+](=O)[O-])nc1Sc1ccc(C(C)(C)C)cc1,-5.3,28,1.8,-5,19,-1.1%
CCc1nnc(NC(=O)c2cnccn2)s1,-0.8,-15,0.7,-19,-12,2.3%
O=c1[nH]c2ccc(NC(=S)Nc3ccc(Cl)cc3)cc2[nH]1,-3.5,24,-0.3,-4,-13,7.3%
CSc1ccccc1C(=O)OCC(=O)NC1CCS(=O)(=O)C1 (configuration not stated),-3.6,13,-0.2,0,-1,1.6%

# New compounds follow.
SMILES,D2 ag,TRPML1 blocker,TRPML1 ag,Six1-Eya2 inh,D2 PAM,PINK1 expr mod
Cc1ccccc1-c1nc(CN2CCCC(C(=O)NCc3cccnc3)C2)c(C)o1 (configuration not stated),-0.6,2,-0.1,-2,-35,.
Cc1cc(N2C(=O)[C@@H]3[C@H](C2=O)[C@@H]2C[C@H]3C(Br)C2Br)no1 (some centres not stated),-6.3,9,0.8,-3,-2,1.2%
Cc1ccc(C)c(NC(=O)CN(C)C(=O)c2cc(C3CC3)nn2-c2ccccc2)c1,2.7,-7,0.5,-7,-7,1.4%
Cc1ccc(NC(=O)c2ccc(F)c(S(=O)(=O)N3CCOCC3)c2)cc1F,1.6,1,-0.3,-1,-2,-1.3%[38.3 µM]
COc1ccccc1NC(=O)c1cc2c(=O)n(C)c3ccccc3c2n1C,-4.3,15,0.8,-17,-8,6.0%
Cc1nc2ccccc2c2oc(C(=O)NCCCN3CCCC(C)C3)cc12 (configuration not stated),-4.7,15,-0.2,-11,-31,-0.4%
CCn1c(C(=O)N2CCCC(C(=O)NCCc3ccc(C)cc3)C2)cc2sccc21 (configuration not stated),0.1,8,3.5,9,-3,.
COCCN(C(=O)COC(=O)c1cccnc1Cl)c1c(N)n(Cc2ccccc2)c(=O)[nH]c1=O,-4.7,11,0.5,16,4,0.1%
CCOC(=O)c1c(CN2CCNCC2)nc2ccc(Cl)cc2c1-c1ccccc1,-1.3,7,0.5,-5,-18,-2.0%
COc1ccc(CC(=O)N(C)Cc2cccc(OC)c2OC)cc1S(=O)(=O)N1CCOCC1,-2.8,-7,-0.5,-2,-25,1.0%
O=C(Nc1ccc(N2CCOCC2)c(Cl)c1)c1ccccc1F,-0.8,8,1.8,5,-1,.
Cc1ccc(S(=O)(=O)N2CCCCC2C(=O)N(C)c2ccccc2)cc1 (configuration not stated),-2.6,35,-0.1,1,-6,1.1%
COCCN(C(=O)COC(=O)CCS(=O)(=O)c1ccccc1)c1c(N)n(Cc2ccccc2)c(=O)[nH]c1=O,-2.0,-5,1.9,8,1,1.7%
CN1C(=O)/C(=C\c2ccc(N(C)C)cc2)OC1=S,-0.7,-7,82*,2,-4,32µM*
C[C@@H]1CC[C@]2(O[C@H](CCO)C[C@@H](O)[C@@H]2O)O1,-0.7,0,0.3,2,-9,-0.2%
COc1ccc(NS(=O)(=O)c2ccc(C)c(C(=O)N3CCN(Cc4cc(OC)ccc4OC)CC3)c2)cc1,-2.1,4,0.2,-11,-5,2.4%
CSc1nc2cc(Oc3cccc(Cl)c3Cl)c(Cl)cc2[nH]1,12,-17,1.4,1,3,?
COc1ccc(-c2cc3nc4n(c(=O)c3s2)CCCCC4)cc1,5.8,-12,1.6,11,1,6.7%
O=C(Oc1ccccc1C(=O)N1CCOCC1)c1ccccc1,0.1,10,0.2,1,1,11%[38.3 µM]
O=[N+]([O-])c1ccc(SCCc2ccncc2)cc1,4.7&0.1,25&0,0.7&0.0,-2&3,1&-11,-1.1%&-0.4%
Cc1ccc(NC(=O)C2(c3ccccc3)CCOCC2)c([N+](=O)[O-])c1,-3.4,12,0.4,13,12,0.5%
CCOC(=O)/C=C1\SCC(=O)N1CC(=O)Nc1ccc(C(C)C)cc1,-5.1,-2,1.1,4,-14,0.7%
Cc1ccc(C(=O)NCCSc2ccccc2)cc1S(=O)(=O)Nc1ccccc1,-0.6,1,0.8,-5,-13,-3.1%[38.3 µM]
CCCCN1C(=O)CN(C2CCCCCC2)C(=O)C1c1ccc(OC(C)C)c(OC)c1 (configuration not stated),.,0,0.2,.,.,2.2%
C[C@H]1CN([C@@H](C)CO)C(=O)CCCn2cc(nn2)CO[C@@H]1CN(C)S(=O)(=O)c1cccc(F)c1,-6.9,4,0.9,-7,-10,-0.5%
Cc1ccc(N2C(=O)[C@@H]3C(C(=O)CCN4C(=O)c5ccccc5C4=O)=NN[C@@H]3C2=O)cc1,-3.5,21,-0.6,3,-2,0.9%
Cc1ccc(NS(=O)(=O)c2ccc(C(=O)NCCCN3CCCC3=O)cc2)cc1,-0.1,-8,0.3,12,-7,0.4%
CCCCN(CC)CCCNC(=O)c1cn(-c2ccc(OC)cc2)c(=O)c2ccccc12,-7.4,2,0.3,14,-7,0.1%
CN(C)c1nc(SCCOC(=O)c2ccccc2)nc(N(C)C)n1,-1.5,1,0.3,28,-11,11%[38.3 µM]
Cc1ccc(-c2nc3ccc(C)cn3c2CC2CCCCC2)cc1,.,.,1.8,12,.,?

# A section from the list above, as a working copy:
SMILES,D2 ag,TRPML1 blocker,TRPML1 ag,Six1-Eya2 inh,D2 PAM,PINK1 expr mod
Cc1ccccc1-c1nc(CN2CCCC(C(=O)NCc3cccnc3)C2)c(C)o1 (configuration not stated),-0.6,2,-0.1,-2,-35,.
Cc1cc(N2C(=O)[C@@H]3[C@H](C2=O)[C@@H]2C[C@H]3C(Br)C2Br)no1 (some centres not stated),-6.3,9,0.8,-3,-2,1.2%
Cc1ccc(C)c(NC(=O)CN(C)C(=O)c2cc(C3CC3)nn2-c2ccccc2)c1,2.7,-7,0.5,-7,-7,1.4%
Cc1ccc(NC(=O)c2ccc(F)c(S(=O)(=O)N3CCOCC3)c2)cc1F,1.6,1,-0.3,-1,-2,-1.3%[38.3 µM]
COc1ccccc1NC(=O)c1cc2c(=O)n(C)c3ccccc3c2n1C,-4.3,15,0.8,-17,-8,6.0%
Cc1nc2ccccc2c2oc(C(=O)NCCCN3CCCC(C)C3)cc12 (configuration not stated),-4.7,15,-0.2,-11,-31,-0.4%
CCn1c(C(=O)N2CCCC(C(=O)NCCc3ccc(C)cc3)C2)cc2sccc21 (configuration not stated),0.1,8,3.5,9,-3,.
COCCN(C(=O)COC(=O)c1cccnc1Cl)c1c(N)n(Cc2ccccc2)c(=O)[nH]c1=O,-4.7,11,0.5,16,4,0.1%
CCOC(=O)c1c(CN2CCNCC2)nc2ccc(Cl)cc2c1-c1ccccc1,-1.3,7,0.5,-5,-18,-2.0%
COc1ccc(CC(=O)N(C)Cc2cccc(OC)c2OC)cc1S(=O)(=O)N1CCOCC1,-2.8,-7,-0.5,-2,-25,1.0%
O=C(Nc1ccc(N2CCOCC2)c(Cl)c1)c1ccccc1F,-0.8,8,1.8,5,-1,.
Cc1ccc(S(=O)(=O)N2CCCCC2C(=O)N(C)c2ccccc2)cc1 (configuration not stated),-2.6,35,-0.1,1,-6,1.1%
